AID504770 – growth inhibition of E. coli YBA685, primary screen, V. cholerae RctB inhibitors; 130,000 tested, 0.27% active; z-score (no concentration beside the values); E. coli YBA685 rctB-dependent plasmid, OD600 growth, 3 h; active compounds read low; AID 504770, 2011;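 active = z-score under -2 on both plates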;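 note: wells of about 30 µL received 100 nL stock; score is relative to mean and SD of the test wells; the first replicate is given; strong numbers were not always called active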
CapD inh – Bacillus anthracis CapD inhibitors, primary screen, biochemical, fluorescence intensity; 140,000 tested, 0.23% active; purified CapD enzyme, fluorescence intensity read-out; active compounds read low; some hits fall short of the stated cut; AID 492967, 2010; z-score (test concentration not listed); CapD gamma-glutamyltranspeptidase (Bacillus anthracis Ames Ancestor);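 active = z-score under -4 in either of two replicates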;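 note: stock transfer was 100 nL into about 40 µL; score is relative to mean and spread of the plate; one replicate is shown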
The depositor's hits bear a star; · = no result given.

SMILES	AID504770	CapD inh
O=C1NC(c2ccccc2)c2c(-c3ccccc3)n[nH]c21 (centres undefined)	1.45	-0.265
O=C(Cc1ccc(-n2cccc2)cc1)NCCc1ccccc1	3.3	0.49
CCN1N=C(C)C=C(C)n2c1nc1ccccc12	1.25	0.235
COC(=O)C(N=Cc1ccccc1)c1ccccc1 (centres undefined)	-1.3	-0.05
O=C(CSc1ccccn1)Nc1ncccn1	-0.4	·
O=c1cc(Cc2nnc(SCc3c(F)cccc3Cl)n2-c2ccc(F)cc2)[nH]c(=O)[nH]1	-0.1	1.64
COc1ccc(N2C(=O)C3C(c4ccccc4Cl)OC4(C(=O)c5ccccc5C4=O)C3C2=O)c(OC)c1 (centres undefined)	·	0.175
COc1ccc(C(=O)Cc2cc3ccccc3oc2=O)c(OC)c1	-0.6	-0.195
Cc1ccc(C)c(S(=O)(=O)c2nnn3c2nc(N2CCC(C(N)=O)CC2)c2sccc23)c1	-0.4	9.73
CCOc1ccc2nc(SCc3ccc([N+](=O)[O-])cc3)nc(C)c2c1	·	0.34
Cc1ccc(NC(=O)C2(N3CCN(c4ccccc4)CC3)CCCCC2)cc1	0.95	0.615
COc1ccc(C2Nc3ccccc3C(=O)N2c2ccc(C)cc2)cc1COc1ccccc1F (centres undefined)	·	15.7
CC(=O)N1CC(=O)N=C1SCC(=O)Nc1ccc(S(N)(=O)=O)cc1	-0.15	·
COc1ccc(C(=O)O)cc1OC1CCCC1	·	-0.035
c1ccc(CC2CCN(c3nc4nonc4nc3Nc3ccc4c(c3)OCO4)CC2)cc1	·	-0.71
O=C(c1ccc(NC(=S)NCc2ccco2)cc1)N1CCCCC1	-1	-0.255
COc1cc([N+](=O)[O-])cc2sc(NC(=O)C34CC5CC(CC(C5)C3)C4)nc12	·	-0.035
O=S(=O)(Nc1ccc(Oc2ccc(Cl)cc2)cc1)c1ccccc1	·	0.24
COC(=O)c1sccc1Oc1ccc(Cl)cc1[N+](=O)[O-]	·	-0.755
N#CCNC(=O)c1cc2nc(-c3cccs3)cc(C(F)(F)F)n2n1	1.35	-0.835
CC1SC(c2ccc(Cl)cc2)NC1=O (centres undefined)	-1.5	0.75
CN(C)c1ccc(C2C(N3C(=O)c4ccccc4C3=O)C(=O)N2c2ccc(Br)cc2)cc1 (centres undefined)	·	-0.245
O=C(CCc1ccccc1)NCc1ccc2c(c1)OCO2	-1.25	·
O=C(NCc1ccc(Cl)cc1)c1csc(Cc2ccc(Cl)cc2)n1	·	-0.005
Cc1ccc([N+](=O)[O-])cc1S(=O)(=O)n1ccnc1C	·	-0.04
Cc1ccc(OCCCn2c(=O)oc3ccccc32)cc1	-0.6	0.05
CN(O)/C=C1\C(=O)Nc2ccccc21	1.15	-2.51
COCCn1c(=NC(=O)c2ccccc2)sc2cc(NC(C)=O)ccc21	-0.2	11
Cc1nc(-c2ccccc2)sc1C(=O)COc1ccc(Cl)c2ccccc12	·	-0.595
CN1C2CCC1CC(NC(=O)CS(=O)(=O)c1ccc(F)cc1)C2 (centres undefined)	0.5	0.015
c1ccc2c(c1)ncc1cccn12	-1.15	64.1
O=C(NCC(O)c1cccc(O)c1)c1cc(=O)n(-c2ccccc2)[nH]1 (centres undefined)	·	-0.09
COc1ccc(C2CC(c3ccccc3)n3ncnc3N2C(=O)C2CC2)cc1 (centres undefined)	-0.95	·
O=C(Nc1ccc(O)cc1)C(=O)c1c(O)[nH]c2ccccc12	0.15	·
CCCCS(=O)(=O)Nc1cc(C(=O)OC)cc(C(=O)OC)c1	-0.1	1.64
C=CCCC(=O)NNC(=O)c1cnn(-c2ccc([N+](=O)[O-])cc2)c1C(F)(F)F	·	0.69
Cc1[nH]c2ccccc2c1C(=O)C(C)OC(=O)c1cccc(N(C)C)c1 (centres undefined)	-0.25	·
CN(C)c1cc(C(=O)N2CCN(C(=O)c3ccc(-c4ccccc4)cc3)CC2)nc(N(C)C)n1	·	-0.005
COc1ccccc1NC(=O)c1sc(=S)n(-c2ccccc2C)c1N	·	-1.02
O=P(c1ccccc1)(c1ccccc1)c1nc(-c2ccc(Cl)cc2)oc1N1CCOCC1	·	-0.215
COc1ccc(C(=O)Nc2ccc(C)c(C)c2)cc1	1.15	0.31
COc1cc(C2/C(=C(\O)c3ccccc3)C(=O)C(=O)N2c2cccc(C(F)(F)F)c2)ccc1O (centres undefined)	·	0.11
OC(COCc1ccccc1)CN1CCN(c2ccccc2)CC1 (centres undefined)	1.5	·
O=c1c2ccccc2nnn1CN1CCN(S(=O)(=O)c2cccs2)CC1	-0.25	·
CCOC(=O)c1ccc2c(c1)sc1nc(-c3cccc(OC)c3)cn12	0.6	6.79
COC(=O)C1=C(CN2CCC(C)CC2)NC(=O)NC1c1ccc(OC)cc1 (centres undefined)	2.6	·
N#CC1C2CCC(C2)C1C(=O)c1ccccc1 (centres undefined)	-0.9	0.09
Nc1ncnc2sc3c(c12)CCCC3	-0.75	·
O=C(O)C(Cc1ccccc1)P(=O)(c1ccccc1)c1ccccc1 (centres undefined)	-0.6	0.075
Cc1cc(C)n(C(=O)CCCC(=O)O)n1	-0.5	·
Next records follow:
SMILES	AID504770	CapD inh
O=C(CCN1C(=O)c2ccccc2C1=O)N1CCCC1	-0.5	-0.26
COc1cc(C)cc(CN2CCN(S(=O)(=O)c3ccccc3C#N)CC2)c1O	1.05	·
COC(=O)/C=C1\SC(=Nc2ccc(C)cc2)NC1=O	1	0.325
COc1cccc(N2CCN(S(=O)(=O)c3ccc(S(C)(=O)=O)cc3)CC2)c1	·	0.315
O=C(NCc1ccc2c(c1)OCO2)C1CC(c2cccc(Br)c2)=NO1 (centres undefined)	0.1	0.04
O=C1OCCC1Sc1nc2ccccc2c(=O)[nH]1 (centres undefined)	-1.2	0.5
O=C(NC1CCCCNC1=O)c1ccc2nsnc2c1 (centres undefined)	1.2	2.25
CN(CCCNC(=O)NCCNc1ccc([N+](=O)[O-])cn1)c1ccccc1	·	-1.64
CC(C(=O)N1CCCC1)N(c1ccccc1)S(C)(=O)=O (centres undefined)	-0.45	0.27
NC(=S)N1CCC(c2ccccc2)=N1	0.05	-1.58
N#Cc1c(NC(=O)COc2ncnc3ccccc23)sc2c1CCC2	-0.6	·
CCC(=O)Nc1ccccc1-c1nnn(CC(=O)N2c3ccccc3CC2C)n1 (centres undefined)	-0.15	·
Cn1c(SC(F)F)nnc1-c1ccc2c(c1)OCO2	-1	0.27
Cc1nc2ccc(S(=O)(=O)NCC(=O)N3CCOCC3)cc2s1	1.2	0.685
C=CCNc1nc(Cl)nc(NCC(=O)OCC)n1	-0.3	0.07
CC(=O)NC1C(=O)Nc2c(C)cc(C)cc21 (centres undefined)	-0.3	0.145
NS(=O)(=O)c1ccc(CNC(=O)c2cccc3cccnc23)cc1	-0.2	·
CC1CCc2c(sc3nc(NN)n(C)c(=O)c23)C1 (centres undefined)	0.35	0.845
c1ccc(-c2nnc3sc(CN4CCc5ccccc54)cn23)cc1	-0.7	-0.345
O=C(O)Cc1coc(-c2ccccc2)n1	-0.05	·
O=C(NCCc1ccsc1)c1cc2c(Cl)nc3ccccc3c2s1	1.1	11.8
COc1ccc2c(c1)-c1c(ssc1=S)C(C)(C)N2C(=O)c1cccc(Cl)c1	·	-1.28
O=c1ccc2cc(S(=O)(=O)NC3CCCCC3)ccc2[nH]1	-0.75	3.76
Cc1ccc2[nH]c(=O)c(N3CCCCC3)c(-c3ccccc3)c2c1	-0.55	0.555
CCCCN(CC)C(=O)Cn1nc(Cc2ccncc2)c2ccccc2c1=O	1.95	-0.075
COc1ccc(C2(CNC(=O)CC(c3ccccc3)c3ccccc3)CCCC2)cc1OC	·	0.32
Cc1nc2cc(Nc3nnc(-c4ccccc4)c4ccccc34)ccc2n1C	·	-0.505
COC(=O)COc1ccc2c(C)cc(=O)oc2c1	-0.7	63.6
CC1(C(=O)N2CCCC2)CCC(=O)N1CCc1ccco1 (centres undefined)	0.2	0.45
COc1cc(/C=N/NC(=O)C(CCSC)NC(=O)c2ccc(C(F)(F)F)cc2)ccc1OC(=O)OC(C)(C)C (centres undefined)	·	-1.22

Another view of two compounds above:
canonical_smiles | AID504770 | CapD inh
Cc1nc2cc(Nc3nnc(-c4ccccc4)c4ccccc34)ccc2n1C | · | -0.505
Cc1ccc2[nH]c(=O)c(N3CCCCC3)c(-c3ccccc3)c2c1 | -0.55 | 0.555

Following part
SMILES	AID504770	CapD inh
CCOC(=O)C1CCN(C(=O)CN2C(=O)c3cccnc3Oc3ccccc32)CC1	0.15	-1.14
Cc1ccc(NC(=O)c2csc(-c3cccnc3)n2)cc1	-0.05	-0.235
c1ccc(C2CCN(c3ncnc4c3nc3n4CCCCC3)C2)cc1 (centres undefined)	-0.6	0.54
CCOC(=O)c1c(C)csc1N	·	-0.215
CC(SCc1nc2sc3c(c2c(=O)[nH]1)CCCC3)C(=O)NCc1ccco1 (centres undefined)	0.4	·
CN(Cc1ccccc1)C(=O)Cn1cc(S(=O)(=O)N2CCCC2)c(S(=O)(=O)N2CCCC2)c1	-1	-1.73
CCc1nc2ccc(C(=O)NCc3ccc(C)cc3)cc2nc1CC	·	-0.61
COc1ccc(OC)c(N=C2SCS2)c1	-0.05	-0.6
COC(=O)c1cc(-c2ccc3c(c2)OCO3)no1	-0.4	10.6
CCCN1C(=O)C(O)(c2c[nH]c3ccccc23)c2ccccc21 (centres undefined)	0.35	0.81
FC(F)(F)c1ccc2nc(-c3ccc(Cl)c(Cl)c3)cnc2c1	·	0.065
O=C(CSc1ncccc1C(=O)N1CCc2ccccc2C1)Nc1ccc2c(c1)OCO2	-2.55	·
O=C(/C=C/c1cccs1)OCc1csc(-c2ccccc2)n1	0.15	·
O=Nc1c(O)[nH]c2c(F)cccc12	-0.35	-0.16
CCC(C)C(=O)NNC(=O)CCN(Cc1ccco1)S(=O)(=O)c1ccc(Cl)cc1 (centres undefined)	·	12.9
CCOc1ccc(C(=O)NCC2CCN(c3nc(C)cc(C)n3)CC2)cc1	1.45	·
Brc1ccc(-c2nnc(C34CC5CC(CC(C5)C3)C4)o2)cc1	1.85	-0.33
CCOc1ccc(S(=O)(=O)NCc2csc(-c3ccccc3)n2)cc1	0.65	0.815
Cc1ccccc1NS(=O)(=O)C(F)(F)F	-0.55	0.115
Cc1ccc(C2C3=C(CCCC3=O)N(C)C3=C2C(=O)CCC3)cc1	-0.15	·
O=C(N/C=N/O)C(c1ccccc1)c1ncc(C(F)(F)F)cc1Cl (centres undefined)	·	-0.09
Cc1nc2ccccc2n1CO	-0.9	0.255
O=C(CN1C(=O)CSc2ccccc21)OCCCn1c(=O)[nH]c2ccccc21	0.1	·
O=C(CCc1nc2ccccc2s1)N1CCN(Cc2ccccc2)CC1	-0.4	·
CC(NC(=O)c1c[nH]c2ccccc12)c1ccccc1 (centres undefined)	-0.8	-0.88
Cc1nc(N)sc1-c1csc(Nc2ccccc2)n1	-0.5	-0.635
CC(=O)n1ccc(-c2ccc(-c3cc(C(F)(F)F)n(C)n3)s2)n1	0.45	51.8
CC12CN3CC(C)(CN(C1)C3c1ccccc1)C2 (centres undefined)	-0.75	-0.515
Cc1nc(N2CCN(CC(=O)NC3CC3)CC2)c2c(-c3ccccc3)csc2n1	1.15	·
O=C(Nc1cccc(C(F)(F)F)c1)c1cc2nc(-c3ccco3)cc(C(F)(F)F)n2n1	·	1.21
COc1cccc(NC(=O)CSc2nc3c(c(-c4ccco4)c2C#N)CCCC3)c1	·	1.11
O=C(O)CCc1nc(-c2ccco2)no1	-0.95	·
Cc1ccc(C(=O)Nc2nc3c(s2)C(=O)CC(C)(C)C3)cc1	-0.45	-0.05
CCCCCCCCCC[N+](CC)(CC)CCOc1ccc2c(c1)C(=O)c1cc(OCC[N+](CC)(CC)CCCCCCCCCC)ccc1-2	·	0.11
CCOC(=O)c1ccc(N(C)S(=O)(=O)c2ccc(OC)cc2)cc1	-0.75	-0.42
COc1ccccc1Nc1cccccc1=O	1.75	-1.44
Cc1nnc(NC(=O)C2CC(=O)N(c3ccc(C)c(Cl)c3)C2)s1 (centres undefined)	1.8	·
Cc1ccc(/C(O)=C2/C(=O)C(=O)N(c3ccc(O)cc3)C2c2cccc(F)c2)cc1 (centres undefined)	·	-1.2
CN1/C(=C(\C#N)c2nc(C#N)c(C#N)nc2Cl)Nc2ccccc21	-0.3	·
O=C1CC(c2ccccc2)CC2=C1C(c1ccc(OCc3ccccc3)cc1)Nc1ccc3ccccc3c12 (centres undefined)	·	77.6
CCOc1ccsc1C(=O)NNC(=O)OCCN(C)Cc1ccccc1	·	-0.815

Among those listed so far, 14 have two or more sulfur atoms:
SMILES	AID504770	CapD inh
Cc1ccc(C)c(S(=O)(=O)c2nnn3c2nc(N2CCC(C(N)=O)CC2)c2sccc23)c1	-0.4	9.73
CC(=O)N1CC(=O)N=C1SCC(=O)Nc1ccc(S(N)(=O)=O)cc1	-0.15	·
COc1ccccc1NC(=O)c1sc(=S)n(-c2ccccc2C)c1N	·	-1.02
O=c1c2ccccc2nnn1CN1CCN(S(=O)(=O)c2cccs2)CC1	-0.25	·
COc1cccc(N2CCN(S(=O)(=O)c3ccc(S(C)(=O)=O)cc3)CC2)c1	·	0.315
Cc1nc2ccc(S(=O)(=O)NCC(=O)N3CCOCC3)cc2s1	1.2	0.685
O=C(NCCc1ccsc1)c1cc2c(Cl)nc3ccccc3c2s1	1.1	11.8
COc1ccc2c(c1)-c1c(ssc1=S)C(C)(C)N2C(=O)c1cccc(Cl)c1	·	-1.28
CC(SCc1nc2sc3c(c2c(=O)[nH]1)CCCC3)C(=O)NCc1ccco1 (centres undefined)	0.4	·
CN(Cc1ccccc1)C(=O)Cn1cc(S(=O)(=O)N2CCCC2)c(S(=O)(=O)N2CCCC2)c1	-1	-1.73
COc1ccc(OC)c(N=C2SCS2)c1	-0.05	-0.6
O=C(/C=C/c1cccs1)OCc1csc(-c2ccccc2)n1	0.15	·
CCOc1ccc(S(=O)(=O)NCc2csc(-c3ccccc3)n2)cc1	0.65	0.815
Cc1nc(N)sc1-c1csc(Nc2ccccc2)n1	-0.5	-0.635

Source: PubChem

Compounds as they come (roughly 0.37% active in at least one column).
